# Assay outcomes: PubChem BioAssay, National Center for Advancing Translational Sciences (NCATS)
# PMP22 txn prim: Cell-based coincidence reporter assay to measure PMP22 gene transcription in S16 Pmp22-F2sN cells - Primary screen; S16 Pmp22-F2sN Schwann cells (luciferase reporters placed in the Pmp22 gene), FLuc/NLuc coincidence luminescence, 24 h; Potency, µM (highest dose often 57.5 µM), without a hit: at the top dose activity change, negative = inhibition, actives largely listed as inhibitors; AID 1508649, 2021; actives 2% (n = 43,000); active = clear falling dose curves in both reporters; inconclusive = both reporters move, but less clearly or upward; inactive = either reporter flat; the % is the NLuc reporter signal; further: on the % scale 0 is the no-effect control and ±100 the full control effect; some results filed as inactive show a strong effect at the top dose
#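 Reporter cells (S16 Pmp22-F2sN, 500–1,000 per well) exposed to compounds for 24 h, 37C, 5% CO2; lysis with FLuc read after 10 min, then Stop&Glo and NLuc read after 10 min.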
# HTT promoter inh: Primary qHTS for Identification of Small Molecule Inhibitors of Huntingtin Promoter Activity. HEK293 HTT promoter firefly luciferase reporter (activity 0% = vehicle and -100% = no light), 24 h. Potency, µM (doses to about 57.5 µM), without a hit: top-dose activity change, negative = inhibition, actives largely listed as inhibitors. actives 0.93% (n = 48,000); active means well fitted inhibition curve with a large enough effect; inconclusive means small, poorly fitted or top-dose-only effect; inactive means no such curve, though single readings can be large or run the other way; further: nearly all actives have a fitted effect of over 50% in size
#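 HEK293 cells carrying firefly luciferase reporters were seeded at 2,500 per well in Opti-MEM and cultured for 24 h. They were then treated with compounds at up to 57.5 uM final for 24 h at 37 degrees C before Dual-Glo luminescence readout.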
# Starred values were filed as active, the others as inactive; ? = inconclusive; nt = not tested or not shown; & = joins results of further samples; [ ] = dose if it differs, or a comment. Potency means the concentration at half of the fitted maximal effect. Not all compounds are listed (hit frequency here may not be typical).
canonical_smiles	HTT promoter inh	PMP22 txn prim
O=C(CN1C(=O)COc2ccc(S(=O)(=O)N3CCCCC3)cc21)NCc1ccc(F)cc1	-16%	-8%
CCCCc1nn2c(=O)cc(COC(=O)c3ccccc3C)nc2s1	20%	?
COc1ccc(NC(=O)Cc2noc3ccc(C)cc23)cc1Cl	?	8%
Cc1ccccc1OCCn1c(=N)n(C(C)C)c2ccccc21	?	?
CCOc1ccc(NC(=O)CS(=O)(=O)Cc2nc(-c3ccc(C)cc3)oc2C)cc1	-22%	-2%
CCCCN(C)CCCNC(=O)CN1C(=O)CSc2ccc(S(=O)(=O)N3CCOCC3)cc21	-2%	-20%
COC(=O)c1cc2occc2n1Cc1nc(-c2ccc(Cl)cc2)oc1C	-8%	-12%
COc1ccc(-n2ncc3c2ncn2nc(Cc4ccccc4)nc32)cc1	-18%	9%
COc1ccc(/C=C\c2onc(C)c2S(=O)(=O)N2CCC(C(=O)Nc3ccc(C)cc3C)CC2)cc1	-17%	-37%
O=C(NC1CC(=O)N(c2ccc(F)cc2)C1)C1CC1 (configuration not stated)	-3%	1%
CCOC(=O)c1cc(-c2ccc(OC)c(S(=O)(=O)N3CCN(c4ccccc4)CC3)c2)on1	-16%	?
CCOC(=O)O[C@]1(C(=O)OCCl)CC[C@@H]2[C@H]3CCC4=CC(=O)C=C[C@]4(C)[C@@H]3[C@@H](O)C[C@@]21C	36%[activator]	nt
COc1ccc(-n2c(-c3ccc(F)cc3)cn3c4c(=O)n(C)c(=O)n(C)c4nc23)cc1	56%[activator]	-6%
COc1ccc(-c2cc3c(=O)n(CC(=O)Nc4ccccc4C(F)(F)F)ccn3n2)cc1OC	-6%	-13%
COc1ccc(Cl)cc1NC(=O)[C@H]1O[C@@H]2OC(C)(C)O[C@@H]2[C@H]2OC(C)(C)O[C@H]21	-4%	2%
COc1ccc(S(=O)(=O)N2CCN(Cc3ccc4c(c3)OCO4)CC2)cc1C	-23%	?
COc1cc(NS(=O)(=O)c2ccc(NC(=O)c3ccc(Cl)cc3Cl)cc2)nc(OC)n1	0%	?
O=C(NC1CC(=O)N(c2ccccc2)C1)C1CCCC1 (configuration not stated)	-17%	?
Cc1c2cnn(-c3ccccc3)c(=O)c2c(C)n1CCCC(=O)Nc1ccc(F)cc1F	-18%	-20%
Cc1ccc(NC(=O)C(=O)NCC(c2cccnc2)N2CCN(C)CC2)cc1F (configuration not stated)	-14%	?
O=C(Nc1ccc(Cl)cc1)N1CCC(CN2CCCC2)CC1	-15%	-3%
Cc1ccc(CNC(=O)c2cnc3c(-c4ccc(F)cc4)c(C)nn3c2C)o1	-22%	-10%
COc1ccc(Cn2ccc3nc(C)c(C(=O)NCc4ccc(C)cc4)cc3c2=O)cc1	?	-27%
Cc1cc(C)cc(C(=O)N2CC(=O)Nc3ccc(Br)cc3C2c2ccccc2)c1 (configuration not stated)	?	?
COc1ccc(-c2nc3ccccc3n3c(-c4ccccc4)c4c(=O)n(C)c(=O)n(C)c4c23)cc1OC	-6%	-7%
Cc1ccc(NC(=O)c2cccc(N(C)C)c2)cc1NC(=O)c1ccc(O)cc1	8%	nt
COC(=O)c1sccc1S(=O)(=O)N(CC(=O)Nc1ccccc1C)c1ccc(Cl)cc1	?	?
CCCN1CCN(c2ncnc3sc(C(=O)Nc4cccc(Cl)c4C)c(C)c23)CC1	-23%	?
CC1(C)CC(O)CC(C)(C)N1[O]	-9%	nt
Cc1cccc(-c2nc(CS(=O)CC(=O)NCc3ccc(Cl)cc3)c(C)o2)c1 (configuration not stated)	-12%	?
Cn1cc(S(=O)(=O)N2CCCCCC2)cc1C(=O)N1CCN(c2ccc(Cl)cc2)CC1	?	?
COc1ccccc1CNC(=O)c1cc2cc(S(=O)(=O)N3CCCCC3)ccc2n1C	?	-42%
CCOc1ccc(CCNC(=O)c2ccc3c(c2)N(Cc2ccccc2)C(=O)c2ccccc2S3=O)cc1OCC (configuration not stated)	-15%	-19%
CS(=O)(=O)N1CCc2cc(C(=O)Nc3ccc(Cl)c(C(F)(F)F)c3)ccc21	?	?
Cc1cc(OCC(=O)N2CCC(c3nc4ccccc4s3)CC2)ccc1Cl	?	-11%
O=C(NCc1ccccc1Br)C1CCCN(C(=O)N2CCOc3ccccc32)C1 (configuration not stated)	-26%	8%
COc1ccc(OC)c(NC(=O)c2cc3c(s2)-c2ccccc2SC3)c1	-6%	-28%
COc1ccc(C)cc1Nc1nc2ccccc2c2nnc(C)n12	-8%	28%
CCCCOc1ccc(C(=O)Nc2onc3c2CCCC3)cc1	38%[activator]	-23%
O=C(CSc1nc2ccccc2nc1Cc1ccc(Cl)cc1)N1CCCCC1	?	?
CC(=O)Nc1c(C)nn(-c2ccccc2)c1N1CCC(C(=O)Nc2ccc(Cl)cc2C)CC1	-5%	12%
COc1ccc(-c2nn(-c3ccccc3)cc2C2NC(=O)NC(C)=C2C(=O)OC(C)C)cc1OC (configuration not stated)	-4%	4%
CC(C)(C)c1ccc(OCC(=O)Nc2ccc(C(=O)OC3CCCCC3)cc2)cc1	3%	-33%
CCOC(=O)c1cnc(N2CCN(c3cccc(C)c3C)CC2)c2ccccc12	-4%	-21%
COC(=O)c1ccc(CN(Cc2ccc(OC)c(OC)c2)S(=O)(=O)c2cc(C(=O)Nc3cccc(C)c3)ccc2F)cc1	-20%	5%
Cc1nnc2c(N3CCN(c4ccccc4)CC3)nc3ccc(C(=O)c4ccccc4)cc3n12	-8%	2%
CCCSc1nnc(NC(=O)Cc2coc3cc(C)ccc23)s1	-12%	12%
CCc1ccc(OC(=O)CSc2nnc(-c3ccc(OC)c(OC)c3)o2)cc1	-7%	-3%
COc1ccc(N2CCN(C(=O)CCS(=O)(=O)c3cc(Br)cc4c3N(C(=O)C3CC3)CC4)CC2)cc1	-14%	-22%
COc1ccc(CCNC(=O)Cn2nnc(-c3ccc(Cl)cc3)n2)cc1OC	5%	4%

# The list goes on:
canonical_smiles	HTT promoter inh	PMP22 txn prim
COc1ccc(C(=O)Nc2nnc(S(=O)(=O)N(C)c3ccc(Cl)cc3)s2)cc1OC	-15%	-38%
Cc1cccc(C2CC(=O)Oc3c2c(=O)n(C)c2ccccc32)c1 (configuration not stated)	-16%	-18%
CSc1nc(C)cc(Nc2cccc(C(=O)O)c2)n1	48%[activator]	?
COc1ccc(-c2cc3nc(C)c(CCC(=O)N4CCN(c5cc(C)ccc5C)CC4)c(C)n3n2)c(OC)c1	-20%	14µM*
CCc1ccc2oc(-c3cccc(NC(=O)c4ccc(N5CCC(C)CC5)c([N+](=O)[O-])c4)c3)nc2c1	-10%	24%
CC1=C(C(=O)Nc2cccnc2)C(c2cccc(F)c2)n2nc(SCc3ccccc3F)nc2N1 (configuration not stated)	-9%	2%
CN1CCN(c2c(F)cc3c(=O)c(C(=O)O)cn(CCF)c3c2F)CC1	4%&6%	nt
COc1cc(NC(=O)CNC(=O)Cn2ccc3ccccc3c2=O)cc(OC)c1OC	-1%	-26%
Cc1ccccc1OCCSc1nc2ccc(NC(=O)c3ccco3)cc2s1	?	?
CCC12CN3CC(CC)(CN(C1)C3c1cccc(OC)c1O)C2=O (configuration not stated)	-11%	16%
CCOC(=O)c1ccc(N2C(=O)c3n[nH]c(-c4ccco4)c3C2c2cccc(O)c2)cc1 (configuration not stated)	?	?
CCN(C(=O)Cn1cc(S(=O)(=O)Cc2ccccc2Cl)c2ccccc21)c1ccccc1	-21%	?
O=C(c1cccc(Cl)c1)N1CCC(c2nc3c(nnn3Cc3ccc(F)cc3F)c(=O)[nH]2)CC1	?	?
CC(C)(C)c1ccc(C2NC(=O)c3n[nH]c(-c4cccs4)c32)cc1 (configuration not stated)	?	2%
COc1ccccc1N1CCN(S(=O)(=O)CCNC(=O)COc2ccc(C(C)C)cc2)CC1	?	?
Clc1ccc(CNc2ncnc3onc(-c4ccc(Cl)cc4)c23)cc1	?	?
CCS(=O)(=O)c1ccc(O)c(Nc2cc(C)nc(SC)n2)c1	?	?
Cc1ccc2oc(-c3ccc(C)c(NC(=O)c4ccc(N5CCC(C)CC5)c([N+](=O)[O-])c4)c3)nc2c1	3%	-38%
O=C(CCS(=O)(=O)c1cc(Br)cc2c1N(C(=O)C1CC1)CC2)N1CCN(c2cccc(C(F)(F)F)c2)CC1	?	13µM*
Cc1c(C(=O)Nc2ccc(C(C)C)cc2)sc2nc[nH]c(=O)c12	37%[activator]	?
CCCN(CCC)C(=O)Cn1c(=O)n(-c2ccc(Cl)cc2)c(=O)c2c3c(sc21)CCCCC3	-5%	?
Cn1cc(S(=O)(=O)N2CCCC2)cc1C(=O)Nc1ccc(C(F)(F)F)cc1	?	-27%
CCCS(=O)(=O)N1CC(=O)N(c2cc(C)ccc2C)C(C)(C(=O)NC2CCCCCC2)C1 (configuration not stated)	-10%	?
O=C(NCC(c1cccnc1)N1CCc2ccccc2C1)c1ccc(F)c(F)c1 (configuration not stated)	?	?
O=C(Nc1ccc(N2CCC(N3CCCCC3)CC2)c(C(=O)O)c1)c1ccc(Br)cc1	-11%	3%
CC(C)Cn1c(CN2CCN(c3cccc(Cl)c3)CC2)nc2c1c(=O)[nH]c(=O)n2C	?	?
CCOc1ccc(NC(=O)c2cn(C)c(=O)c3cc(OC)c(OC)cc23)cc1	33%	-4%
CCN(CC)S(=O)(=O)c1ccc2c(c1)N(CC(=O)N1CCN(c3ccc(F)cc3)CC1)C(=O)CO2	-8%	-8%
COc1cccc2sc(N(Cc3cccnc3)C(=O)c3ccc(S(=O)(=O)N(C)C)cc3)nc12	-20%	-22%
O=C(Nc1ccc(-c2nc3cc(NC(=O)c4ccc(Cl)cc4)ccc3o2)cc1)c1ccc(Cl)cc1	0%	-3%
CCOC(=O)c1c(S(=O)(=O)N2CCCC(C(=O)Nc3ccc(C)cn3)C2)c(C)n(C)c1C (configuration not stated)	-11%	5%
Cn1ncc2c(N3CCN(c4ccc(F)cc4)CC3)ncnc21	?	-29%
CCOC(=O)C1CCCN(C(=O)Cn2ncc3c4ccccc4n(C)c3c2=O)C1 (configuration not stated)	8%	0%
CCN(C(=O)CCc1nc(-c2ccc(C)cc2)no1)c1cccc(Cl)c1	-23%	48%
O=C(CN1C(=O)CCSc2ccc(S(=O)(=O)N3CCCC3)cc21)Nc1cccc(Cl)c1	-24%	-9%
Cc1ccc2c(CNCCc3ccc(Cl)cc3)c(C(=O)O)n(Cc3ccc(F)cc3)c2c1	?	?
CCOC(=O)N1CCc2c(sc(NCc3cccs3)c2C(=O)Nc2ccc(OC)cc2OC)C1	7.9µM*	-29%
Cc1cccc(OCCSc2nc3ccc(NC(=O)c4cccs4)cc3s2)c1	?	?
CCOC(=O)N1CCN(c2ncc3c(n2)CC(c2ccccc2O)CC3=O)CC1 (configuration not stated)	?	?
CCC(C)NC(=O)Cn1c(=O)ccc2cc(S(=O)(=O)N3CCCC3)ccc21 (configuration not stated)	13%	13%

# Part of the list above in order of molecular weight, rising:
canonical_smiles	HTT promoter inh	PMP22 txn prim
Cn1ncc2c(N3CCN(c4ccc(F)cc4)CC3)ncnc21	?	-29%
CCN(C(=O)CCc1nc(-c2ccc(C)cc2)no1)c1cccc(Cl)c1	-23%	48%
CCC(C)NC(=O)Cn1c(=O)ccc2cc(S(=O)(=O)N3CCCC3)ccc21 (configuration not stated)	13%	13%
CCOC(=O)c1c(S(=O)(=O)N2CCCC(C(=O)Nc3ccc(C)cn3)C2)c(C)n(C)c1C (configuration not stated)	-11%	5%
O=C(CN1C(=O)CCSc2ccc(S(=O)(=O)N3CCCC3)cc21)Nc1cccc(Cl)c1	-24%	-9%
CCOC(=O)N1CCc2c(sc(NCc3cccs3)c2C(=O)Nc2ccc(OC)cc2OC)C1	7.9µM*	-29%

# More structures
canonical_smiles	HTT promoter inh	PMP22 txn prim
Cc1csc2nc(-c3cccc(NC(=O)c4ccccc4F)c3)cn12	22%	?
O=C(NCCc1ccccc1)c1ccc2c(c1)CCN2S(=O)(=O)c1ccccc1	-21%	-28%
Cc1cc(C)c(NC(=O)C2CCN(c3nn4c(=O)cc(C)nc4s3)CC2)c(C)c1	-15%	-6%
COCCn1c(CCC(=O)Nc2ccc(OC)c(OC)c2)nc2cccnc21	9%	-17%
CCOC(=O)c1cc(S(=O)(=O)Nc2ccccc2OCC)[nH]n1	-5%	-3%
Cc1ccc(CNc2nc(-c3ccco3)nn2C(=O)c2ccccc2[N+](=O)[O-])cc1	33%[activator]	-12%
Cc1cc(C)cc(NC(=O)C(=O)NCC(c2ccc3c(c2)OCO3)N2CCOCC2)c1 (configuration not stated)	-2%	-8%
Cc1ccc(NC(=O)CSc2cn(CC(=O)N3CCOCC3)c3ccccc23)cc1Cl	-19%	-44%
